# Compound activity deposited in PubChem by National Center for Advancing Translational Sciences (NCATS).
# VACV Venus inh: inhibitors of vaccinia virus (Venus reporter); Vaccinia virus Venus reporter expression, fluorescence; Potency, µM (highest dose often 36.5 µM), inactives show top-dose activity change, negative = inhibition, actives largely listed as inhibitors; actives 0.46% (n = 330,000); AID 720580; active means well fitted inhibition curve with a large enough effect; inconclusive means small, poorly fitted or top-dose-only effect; inactive means no such curve, though single readings can be large or run the other way; tested in A549 cells; also: nearly all actives have a fitted effect of over 30% in size; inactives centre near -10
# VACV mCherry inh: inhibitors of vaccinia virus infection (mCherry reporter signal); Vaccinia virus mCherry reporter infection, fluorescence; about a quarter of the inactives have no number; Potency, µM (highest dose often 36.5 µM), inactives show at the highest dose activity change, negative = inhibition, most hits filed as inhibitors; actives 0.63% (n = 310,000); AID 720579; active = well fitted inhibition curve with a large enough effect; inconclusive = small, poorly fitted or top-dose-only effect; inactive = no such curve, though single readings can be large or run the other way; tested in A549 cells; also: nearly all actives have a fitted effect of over 35% in size; inactives centre near -10
# Active calls of the source: *; i = inactive; ? = inconclusive; . = not tested or not shown; [ ] = dose if it differs, or a comment. % is scaled to controls: 0 for no effect and ±100 for the full control effect; potency is read from the fitted curve at half-maximal effect. Hits appear at their usual frequency; any-hit rate near 0.82%.
SMILES	VACV Venus inh	VACV mCherry inh
CC(C)Oc1cccc(C(=O)N2CCCC2)c1	-4.1%	i
CCOC(=O)c1cc(-c2ccc(F)cc2)n(CCC(=O)Nc2nc3ccc(OC)cc3s2)c1C	-29.4%	-16.3%
NS(=O)(=O)c1ccc(Sc2ccccn2)c([N+](=O)[O-])c1	-14.9%	i
CCCn1c2ccccc2c2cnn(CC(=O)NCCCN3CCN(c4ccccc4)CC3)c(=O)c21	-6.6%[7.34 µM]	-3.9%[7.34 µM]
CCn1cc(CNC(=O)CSc2nc(-c3ccc(OC)c(OC)c3)cc(C(F)(F)F)n2)c(C)n1	-18.2%	-24.5%
COC(=O)c1ccc(NC(=O)CSc2cn(CC(=O)N3CCCCC3)c3ccccc23)cc1	-4.3%	-8.6%
CCOc1ccc2c(CC)cc(=O)oc2c1OCC	-17.7%	i
Cc1ccc(NC(=O)Cn2c(=O)n(Cc3ccco3)c(=O)c3ccccc32)cc1	-7.9%	-7.9%
CN(CC(=O)Nc1ccc(N2CCOCC2)cc1)C(=O)CCCOc1ccc(Cl)cc1Cl	-19.1%	?
CC(=O)C1(C)C(=O)N(c2ccc(F)cc2)C(=O)N1c1ccc(F)cc1 (stereo not given)	-9.2%	-15.0%
O=C(Nc1ccc(OC(F)(F)F)cc1)Nc1cccc([N+](=O)[O-])c1	10µM*	10µM*
Cc1ccc(S(=O)(=O)N2CCC(C(=O)NNC(=O)c3ccncc3)CC2)cc1	-17.3%	i
O=C(/C=C/c1ccc([N+](=O)[O-])cc1)c1ccccc(=O)c1O	-27.5%	?
CCN(Cc1ccccc1)Cc1c(O)ccc2c(=O)c(-c3ccc(Cl)cc3)coc12	-8.6%[7.34 µM]	-6.8%[7.34 µM]
CCOC(=O)Cc1nnc(Nc2cccc(C)c2)c2ccccc12	-10.0%	-17.6%
COc1ccc(/C=N\NC(=O)c2ccc(Cn3cc(Br)c([N+](=O)[O-])n3)o2)c(OC)c1C	-29.9%	?
COCCNC(=O)c1cc2nc(-c3ccccc3)cc(C)n2n1	3.0%	1.9%
COC(=O)c1ccc(NC(=O)C(=O)NCCc2sc3nc(-c4ccc(OC)cc4)nn3c2C)cc1	-8.4%	-9.7%
O=C(NN1CCN(Cc2ccccc2)CC1)c1ccc(Cl)cc1	-16.8%	-9.1%
COc1ccc(-c2cc(-c3ccc4c(c3)NC(=O)CO4)nc3c2COc2ccc(F)cc2-3)cc1	-1.8%	2.9%
OC(c1cc(-c2ccc(Cl)cc2)nc2ccccc12)C1CCCCN1 (stereo not given)	14.1µM*	?
O=C1NC2=C(C(=O)CCC2)C(c2cccc([N+](=O)[O-])c2)N1 (stereo not given)	-9.5%	-14.3%
CCn1c(SCC(=O)Nc2ccc3c(c2)OCCO3)nnc1-c1ccncc1	-3.9%	i
COc1ccc(-n2c(=O)c3sc4ccccc4c3n(Cc3ccccc3)c2=O)cc1	-5.8%	-6.5%
CN(CCOc1ccccc1)C(=O)c1ccc(OC2CCN(C(=O)C3CC3)CC2)cc1	-6.3%	-11.5%
O=C(Nc1cnc2ccccc2c1)C1COc2ccccc2O1 (stereo not given)	-19.0%	.
COC(=O)CSC1=C(C#N)C(c2sccc2C)CC(=O)N1 (stereo not given)	?	.
CCN1CCOC(c2ccccc2)C1 (stereo not given)	2.3%	i
COc1ccccc1N=C1SCC(=O)N1c1ccccc1OC	-13.4%	i
CC(=O)N1CCc2c(sc(NC(=O)Cc3ccccc3)c2C#N)C1	-12.7%	-5.4%
O=C(OCc1cc(=O)n2nc(-c3cccs3)sc2n1)c1ccc(F)cc1	-4.4%	-2.3%
O=C(c1ccnc(Cl)c1)N1CCCC(N2CCN(c3ccccc3F)CC2)C1 (stereo not given)	-13.5%	-7.6%
C#CCOC(=O)C1C2C=CC(C2)C1C(=O)O (stereo not given)	-19.2%	-3.2%
CC(C)(C)c1ccc(C(=O)Nc2sc3c(c2C#N)CCC(C(C)(C)C)C3)cc1 (stereo not given)	-5.5%	-10.6%
CC(C)(C)c1ccc(C(=O)N2CCN(CCNC(=O)C(=O)NCc3ccccc3)CC2)cc1	-11.5%	-26.4%
Cc1ccc(S(=O)(=O)CCC(=O)OCC(=O)c2ccc(F)cc2)cc1	-14.2%	i
Cc1nc2cc(Cl)c([N+](=O)[O-])cc2s1	-24.4%	?
COc1nccc(-c2ccc(F)cc2)c1C#N	-7.5%	-7.5%
CCOC(=O)c1c(C)[nH]c(C)c1S(=O)(=O)N(C)Cc1ccco1	14.6%[7.34 µM]	-1.8%[7.34 µM]
COc1ccc(S(=O)(=O)Cc2ccc(C(=O)NC(C)C)o2)cc1	-1.7%	-2.8%
CCOC(=O)c1oc2ccccc2c1CN1CCN(C)CC1	-16.6%	.
Cc1ccc(NC(=O)c2c(NC(=O)Cc3ccccc3)sc3c2CCCC3)cc1	-9.4%	-4.9%
COc1ccc(C(=O)NC2(C(F)(F)F)C(=O)NC(C)=C2C#N)cc1OC (stereo not given)	-15.1%	-10.7%
O=C(NNC(=S)NCC1CCCO1)c1cccc(S(=O)(=O)N2CCOCC2)c1 (stereo not given)	2.7%	4.7%
N/C(Cn1cncn1)=N\OC(=O)c1ccc(Cl)cc1Cl	-2.7%	-7.8%
CC(=O)Nc1cccc(C(=O)OCC(=O)Nc2c(C)nn(-c3ccccc3)c2C)c1	-2.1%	-11.3%
O=C(Nc1ccc(Cl)cc1)c1cncs1	-8.1%	-2.2%
COc1ccc(OC)c(-c2[nH]nc3c2C(c2ccco2)C(C#N)=C(N)O3)c1 (stereo not given)	18.3%	.
Cc1ccc(C(=O)NCCCNCCCNC(=O)c2ccc(C)nc2)cn1	3.2%	-5.7%
O=C(CNC(=O)C12CC3CC(CC(C3)C1)C2)N1CCCC(C(F)(F)F)C1 (stereo not given)	-9.7%	-11.8%

# Other records
SMILES	VACV Venus inh	VACV mCherry inh
CN(CC(=O)Nc1ccccc1Br)C(=O)c1ccc(-c2ccc(Cl)cc2)o1	-27.3%	i
O=S(=O)(NCc1ccc(Cl)cc1)c1ccc2[nH]c3c(c2c1)CCCC3	-20.4%	-8.4%
CCn1c(SCc2ccc(F)cc2Cl)nc(=O)c2c(C(=O)OC)cc(C3CC3)nc21	-5.7%	i
CSc1nnc(CCCCCNC(=O)OC(C)(C)C)o1	-6.8%	i
O=C(NCCCc1nc2ccccc2n1Cc1c(F)cccc1Cl)C1CCCCC1	-2.7%	i
Cc1cc(NC(=O)COc2ccccc2C)ccc1NC(=O)c1ccco1	-3.6%	-6.9%
COC(=O)c1c(C)[nH]c(C=Nc2ccc(OC)cc2)c1C	-7.4%	i
CCC(=O)N[C@@H]1c2ccccc2C2(CCN(Cc3ccccn3)CC2)[C@H]1OC	-8.6%	i
Cn1c(=O)c2c(O)c(Cc3ccccc3)c(=O)[nH]c2n(C)c1=O	-15.9%	-24.2%
COCCNC(=O)Cn1nc(-c2ccccc2F)ccc1=O	-9.6%	-4.5%
CC(C)CN(C(=O)COC(=O)CSc1ccccc1F)c1c(N)n(Cc2ccccc2)c(=O)[nH]c1=O	-9.1%	-13.2%
Cc1cc(N2CCN(C(C(=O)NC3CCCC3)c3ccc(-c4ccccc4)cc3)CC2)c2ccccc2n1 (stereo not given)	-10.2%	7.1%
Cc1[nH]c2ccccc2c1C(=O)C(=O)N1CC(C)OC(C)C1 (stereo not given)	-7.6%	-13.4%
O=C(Nc1ccccc1Cl)c1cc(C2CCCN(C(=O)c3cccc(O)c3)C2)on1 (stereo not given)	-7.2%	i
COc1ccc(OC)c(-c2nc(Nc3ccccc3C)sc2CC(=O)O)c1	-1.7%	-6.9%
CN1CCN(C(=O)c2ccc(-c3ccc(F)c(F)c3)c3ccoc23)CC1	-9.5%	i
O=C(CSc1ccc2nnc(-c3ccccc3)n2n1)NCC1CCCO1 (stereo not given)	-7.1%	-10.1%
CC(=O)c1cccc(OCC(=O)c2cc(C)n(-c3cc(C)on3)c2C)c1	-26.1%	-9.0%
O=C1c2ccccc2NC(c2ccccc2)N1Cc1ccco1 (stereo not given)	-13.4%	.
O=S(=O)(c1cccc2ccccc12)N1CCN(c2nc(-c3cccs3)nc3ccccc23)CC1	-14.6%	i
O=C(O)c1cc(Br)ccc1NS(=O)(=O)c1cccc2nsnc12	-6.0%	i
COc1ccc(NC(=S)N2CCC(NC(=O)c3ccccc3C)CC2)cc1	-3.8%	i
c1csc(COc2ccccc2CNC2CCCCC2)c1	-28.6%	-23.5%
O=C(NCCc1ccc(Cl)cc1)c1cnc2n(c1=O)CCS2	-12.1%	6.7%
Oc1cccc(C(Nc2nccs2)c2ccc3cccnc3c2O)c1 (stereo not given)	?	15.8µM*
O=C(Nc1ccc(F)c(Cl)c1)c1cc(C2CCCCN2C(=O)CCc2ccccc2)on1 (stereo not given)	-17.7%	8.6%
COc1ccc(CCNC(=O)C(=O)NCC(c2cccs2)S(=O)(=O)c2ccc(C)cc2)cc1 (stereo not given)	-7.0%	-11.1%
CCOC(=O)C1=CCC2c3c(c4ccccc4n3C)C(=O)C1N2C(=O)OC(C)(C)C (stereo not given)	-21.1%	i
Cc1nn2c(-n3ccnc3)c3c(nc2c1-c1ccccc1)CCC3	-24.2%	-18.8%
COC(=O)[C@@]12C[C@@H](CC(=O)NCc3cccc(C(F)(F)F)c3)C(=O)N(Cc3ccco3)C1=CCC(C)(C)C2	-29.1%	?

# An excerpt of these results, with values under each structure:
# Fields: VACV Venus inh | VACV mCherry inh
c1csc(COc2ccccc2CNC2CCCCC2)c1
 : -28.6% | -23.5%
O=C(NCCc1ccc(Cl)cc1)c1cnc2n(c1=O)CCS2
 : -12.1% | 6.7%
Oc1cccc(C(Nc2nccs2)c2ccc3cccnc3c2O)c1 (stereo not given)
 : ? | 15.8µM*

# More records follow.
SMILES	VACV Venus inh	VACV mCherry inh
CSc1ccc(C#N)cc1NC(=O)c1ccccc1C	-12.2%	i
O=C(COC(=O)CNC(=O)c1ccccc1)Nc1ccc(Cl)cn1	9.3%	-4.5%
Cc1ccc(C)c(N2CCN(c3cnn(-c4nc5ccccc5s4)c(=O)c3Cl)CC2)c1	-8.9%	-9.3%
Cn1c(=O)c2c(ncn2CCOc2ccc(Br)cc2)n(C)c1=O	-11.5%	-19.3%
CCC(C)Sc1nc2c(c(=O)[nH]c(=O)n2C)n1Cc1ccccc1Cl (stereo not given)	-29.3%	-3.1%
CN(C)S(=O)(=O)c1ccc2c(c1)N(CC(=O)NCc1ccccc1)C(=O)C1CCCCN21 (stereo not given)	-15.0%	-4.0%
C[C@@H]1CN([C@H](C)CO)C(=O)c2cc(Br)cnc2O[C@@H]1CN(C)Cc1ccc(F)cc1	-7.6%	-5.9%
CN(C)C(CNC(=O)c1ccc2ccccc2n1)c1ccccc1 (stereo not given)	-4.5%	2.0%
COCCn1nnnc1C(c1ccc(C)cc1)N1CCN(Cc2ccc3c(c2)OCO3)CC1 (stereo not given)	-16.5%	-19.9%
O=C(Nc1nc(SCc2ccc(F)cc2)ns1)c1ccco1	4.8%	-2.4%
CCOC(=O)C(=O)Nc1nccs1	-5.2%	-1.2%
CC(=O)N1CCN(S(=O)(=O)c2cccc(C(=O)OCc3cccc(F)c3)c2)CC1	-19.8%	-7.5%
NC(=O)c1c(NC(=O)CS(=O)(=O)c2ccc(Cl)cc2)sc2c1CCCCC2	-17.4%	-22.4%
COC(=O)c1ccc(Cn2cnc3nc4c(cc3c2=O)CCCC4)cc1	-5.2%	-8.1%
O=C(COC(=O)C1CC(O)CN1S(=O)(=O)c1ccc(Cl)cc1)c1ccccc1Cl (stereo not given)	-10.0%	-2.1%
O=C(c1cccc(S(=O)(=O)N2CCCCC2)c1)N(CCc1ccccc1)Cc1ccccc1	-24.4%	-13.7%
O=S(=O)(c1cccc(NC(=S)N2CCN(c3cccc(Cl)c3)CC2)c1)C(F)F	-18.6%	-28.6%
CC1(C)NC(=O)N(CC(=O)OCc2cc(=O)n3cc(Br)ccc3n2)C1=O	4.7%	i
CC1CC(=O)NN=C1c1ccc(NCCO)c([N+](=O)[O-])c1 (stereo not given)	-4.0%	-18.0%
O=C(Nc1ccc(S(=O)(=O)NCc2ccco2)cc1)c1ccc(F)cc1	-17.2%	i
O=C(NC1CCCCC1)C(c1ccccc1F)n1c(=O)c(-c2ccco2)nc2ccccc21 (stereo not given)	8.6%	9.3%
CCCCC(=O)Nc1ccccc1N1CCN(c2ccc(F)cc2)CC1	-10.8%	i
C/C(=N\N(c1ccccc1)c1ccccc1)c1ccco1	4.0%	?
O=S1(=O)c2ccc(Br)cc2N2CCC[C@H]2CN1Cc1ccccc1	-13.4%	-3.9%
O=[N+]([O-])c1ccc(Nc2nc(N3CCOCC3)nc(N3CCOCC3)n2)cc1	0.9%	-14.7%
O=C(C1CC(=O)N(C2CCCCC2)C1)N1CCC2(CC1)OCCO2 (stereo not given)	-6.8%	.
COc1ccc(C(=O)Nn2c(SCc3ccc([N+](=O)[O-])cc3)nc3ccccc3c2=O)cc1	-12.3%	.
CCN(CC)C(=O)CC(c1ccc(N(C)C)cc1)c1c(OC)cc(OC)c2c(-c3ccccc3)cc(=O)oc12 (stereo not given)	?	?
